Assay outcomes deposited in PubChem by National Center for Advancing Translational Sciences (NCATS).
PINK1 expr mod = PINK1 expression modulation; actives 0.2% (n = 410,000); AID 624263; Potency, µM (doses to about 76.6 µM), for inactives: at the highest dose activation (PINK1 increase), usual class: activators; PINK1 immunofluorescence, high-content cytometry, 24 h; active = well fitted activation curve with a large enough effect; inconclusive = small, poorly fitted or top-dose-only effect; inactive = flat fitted curve, though single readings scatter; cell line not stated here;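 note: potency is the fitted concentration of half-maximal effect; % of control where 0% means no effect; nearly all actives have a fitted effect of over 65% in size; a mitochondrial uncoupler was the plate control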
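Compound titrations (5 concentrations, 24 h) on a stable cell line; DMSO and CCCP controls. Endpoint: fixed-cell PINK1 immunofluorescence with mitochondrial, cell and nuclear markers, scanned by microplate cytometer.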
Six1-Eya2 blk = Six1/Eya2 interaction inhibition; AlphaScreen GST-Six1/His-Eya2 binding, biochemical; stronger effect = lower value; control for the full effect not named in the record; activity change, % (concentration not given with the values); Q15475+O00167; actives 0.56% (n = 360,000); in the data active = activity change below about -65%; inconclusive = about -30% to -65%; inactive = above about -30%; note: % is set by controls: 0 for no effect and ±100 for the full control effect
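Homogeneous AlphaScreen proximity assay pairing GST-Six1 with His-tagged Eya2 (added as 5X mix: 250 nM and 500 nM) in 50 mM Tris pH 8.0, 300 mM NaCl, 1 mM TCEP. Glutathione donor and nickel acceptor beads; 1 h, 37 °C, dark.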
TRPML1 ag = agonists of human TRPML1 channel. Q9GZU1. TRPML1-expressing cells, Ca2+ dye fluorescence, FDSS; host cell line not named in the record; reference of the full effect not given here. activation, % (concentration not given with the values). actives 0.12% (n = 410,000). AID 624414; in the data active = activation above about 50%; inconclusive = about 30% to 50%; inactive = below about 30%; note: 0% is about no effect; the text of the record puts the active cut at 80%
Target sequence (Q9GZU1 whole entry, looked up): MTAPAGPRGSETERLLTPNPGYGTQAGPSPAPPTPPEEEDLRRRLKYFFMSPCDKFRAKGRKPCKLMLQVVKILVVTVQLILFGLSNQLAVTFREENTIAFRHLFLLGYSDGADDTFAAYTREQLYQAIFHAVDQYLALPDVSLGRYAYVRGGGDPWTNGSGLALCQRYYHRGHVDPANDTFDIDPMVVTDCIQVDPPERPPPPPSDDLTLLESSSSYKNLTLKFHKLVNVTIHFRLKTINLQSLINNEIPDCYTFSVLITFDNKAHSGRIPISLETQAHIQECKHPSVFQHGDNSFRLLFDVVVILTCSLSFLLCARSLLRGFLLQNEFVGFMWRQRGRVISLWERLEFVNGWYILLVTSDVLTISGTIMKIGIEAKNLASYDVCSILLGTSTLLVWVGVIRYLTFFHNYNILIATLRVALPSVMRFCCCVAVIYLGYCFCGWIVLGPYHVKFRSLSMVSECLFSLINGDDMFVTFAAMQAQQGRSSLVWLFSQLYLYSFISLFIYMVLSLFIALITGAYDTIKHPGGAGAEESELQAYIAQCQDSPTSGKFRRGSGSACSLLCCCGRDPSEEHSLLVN
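Cells: TRPML1-DL, 1X Tet inducer, ~16 h at 37 degrees C/5% CO2. Dye: ABD Ca8 no-wash + quencher, 45-90 min RT. Read: 10 s baseline, compound add, 110 s agonist phase; 54-4 EC80 (4uM final), 110 s antagonist phase.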
CtBP-E1A inh = blocks the CtBP interaction with E1A. AID 651724. activity change, % (concentration not given with the values). AlphaScreen GST-E1A/His-CtBP binding, 1536-well; stronger effect = lower value; control for the full effect not named in the record. actives 0.49% (n = 340,000); in the data active means activity change below about -65%; inconclusive means about -30% to -65%; inactive means above about -30%; note: % is set by controls: 0 for no effect and ±100 for the full control effect
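AlphaScreen with 125 nM GST-E1A and 125 nM His-CtBP (5X stocks) in Tris pH 8.0, 300 mM NaCl, BSA, Tween 20, TCEP. Compounds preincubated 2 h at 37 deg C, then glutathione donor/nickel acceptor beads added for 1 h at 37 deg C in dark.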
D2 ag = agonists of human D2 dopamine receptor (beta-arrestin); P14416; DiscoveRx PathHunter D2 beta-arrestin, luminescence, 90 min; 100% = 57 uM dopamine signal; activation, % (no concentration beside the values); actives 0.084% (n = 360,000); in the data active = activation above about 40%; inconclusive = about 15% to 40%; inactive = below about 15%; note: compound concentration not given in the record; the text of the record calls up to 30% inactive
Target sequence (P14416 whole entry, looked up): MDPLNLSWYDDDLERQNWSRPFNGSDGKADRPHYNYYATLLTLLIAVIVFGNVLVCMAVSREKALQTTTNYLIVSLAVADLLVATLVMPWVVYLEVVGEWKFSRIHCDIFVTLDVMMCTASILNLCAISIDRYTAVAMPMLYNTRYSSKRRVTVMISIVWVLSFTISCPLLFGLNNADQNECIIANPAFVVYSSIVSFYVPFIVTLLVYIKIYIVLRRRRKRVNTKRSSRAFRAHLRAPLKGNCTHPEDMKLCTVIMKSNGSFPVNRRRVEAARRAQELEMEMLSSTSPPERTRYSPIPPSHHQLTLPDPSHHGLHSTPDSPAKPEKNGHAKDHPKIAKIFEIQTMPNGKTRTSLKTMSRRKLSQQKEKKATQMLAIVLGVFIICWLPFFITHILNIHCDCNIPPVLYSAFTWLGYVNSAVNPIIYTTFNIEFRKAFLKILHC
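DiscoveRx PathHunter D2 beta-arrestin cells (2,100/well) attached overnight, then compound-stimulated 90 min at 37 C in HBSS/10 mM HEPES/0.1% Tween-20 buffer; beta-galactosidase complementation read by luminescence after 1 h at ambient temperature. Dopamine 57 uM final (EC100) as control.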
TRPML1 inh = human mucolipin-1 channel inhibition | TRPML1-inducible cells, Ca2+ dye fluorescence, FDSS; stronger effect = lower value; inhibition of EC80 agonist-evoked calcium signal | activity change, negative = inhibition, % (test concentration not listed) | actives 0.02% (n = 390,000); in the data active means activity change below about -50%; inconclusive means about -30% to -50%; inactive means above about -30%;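 note: stimulus is agonist 54-4 at its EC80 concentration; % is set by controls: 0 for no effect and ±100 for the full control effect; compound concentration not given in the record; the text of the record puts the active cut at -80%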
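Tet-induced TRPML1-DL cells loaded with Ca8 no-wash calcium dye were read kinetically on FDSS. Compound addition was followed by EC80 agonist 54-4 (4 uM final); inhibition was read over 110 s.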
Starred values were filed as active, the others as inactive; u = inconclusive; x = not tested or not shown; & = joins results of further samples; [ ] = remark or other dose.

The line under a structure holds: PINK1 expr mod, Six1-Eya2 blk, TRPML1 ag, CtBP-E1A inh, D2 ag, TRPML1 inh
- CCOC(=O)c1cc(NC(=O)c2ccc(C)cc2)c(=O)n2c1oc1ccccc12
    1.1%, x, 2.0, x, x, -2
- Cc1ccc(-n2ncc3c(N(CCO)Cc4ccccc4)ncnc32)cc1
    3.1%, x, 1.0, x, x, 27
- COc1cccc(NC(=O)Cn2nnc(C(=O)NCc3ccc4c(c3)OCO4)c2N)c1
    7.4%&-14%, 3, 0.2&0.1, -11, 1.3, 8&-6
- CCOC(=O)c1c(NC(=O)COc2cc(C)ccc2C(C)C)sc2c1CCCC2
    1.7%, x, 1.2, x, x, 0
- O=C(CCc1ccccc1)NC(NC(=S)Nc1cccc(Cl)c1)C(Cl)(Cl)Cl (stereo not drawn)
    x, 4, 1.2, 5, -2.2, 0
- COc1ccc(S(=O)(=O)NNC(=O)C2Cc3c(ccc4ccccc34)O2)cc1 (stereo not drawn)
    1.4%, -3, -0.2, -1, -4.4, -1
- COc1ccc(CCNC(=O)c2csc3c2CCCCC3)c(OC)c1
    4.3%, x, 0.9, x, x, 10
- CC1(C)CC(=O)c2c(O)cc(OCc3ccc(Br)cc3)cc2O1
    -0.8%[38.3 µM], 21, 4.6, 25, -2.2, 48
- CCc1nc2c(OCc3ccc(Cl)cc3)cccn2c1N(C)C(=O)c1cccs1
    7.4%, -9, -1.0, -4, -3.3, x
- COc1ccc(NC(=O)Cc2ccccc2)cc1
    -3.1%, 3, 1.1, -9, -3.9, 7
- COc1cc(OC)c2c(c1)OC(=O)CC2c1cc(OC)c(OC)c(OC)c1 (stereo not drawn)
    0.6%, 18, -0.5, 23, -1.5, 0
- O=C(CCNC(=O)N1CC(=O)Nc2ccccc21)NCc1ccc(Cl)cc1
    1.2%, 0, -0.1, 0, -3.7, -3
- O=P(CCC(F)(F)F)(CCC(F)(F)F)CCC(F)(F)F
    1.0%, 23, -0.7, 0, -5.8, -7
- CCCCCN(C(=O)CCC(=O)OCC(=O)Nc1cccc(CC)c1)c1c(N)n(CCCC)c(=O)[nH]c1=O
    3.7%, 4, 0.0, -4, -0.1, 10
- N#C/C(=C\c1ccc(F)cc1)c1nc(-c2ccc(-c3ccccc3)cc2)cs1
    0.8%, x, -0.1, x, x, -10
- Cc1cc(/C=C2\C(=N)N3N=C(S(C)(=O)=O)SC3=NC2=O)c(C)n1Cc1ccccc1
    11%, 1, -0.6, 4, -3.3, -4
- Cc1ccc(NC(=O)c2cccnc2C(=O)O)nc1
    1.3%, -20, 0.2, -12, -5.4, 24
- Cn1nnc2sc3c(c2c1=O)CCCC3
    10%[38.3 µM], -1, -0.6, 4, -3.6, -8
- CCOC(=O)c1ccc(NC(=O)CSc2nc3ccccc3c(=O)n2CCC(=O)NC2CCCCC2)cc1
    1.5%, x, 0.0, x, x, 7
- Cc1ccc(C)c(C(=O)COC(=O)Cn2[nH]c(=O)c3ccccc3c2=O)c1
    -0.2%, 5, 1.0, 0, -4.1, 15
- Cn1c(=O)n(-c2cccc(Cl)c2)c(=O)c2sc3ccccc3c21
    0.4%, x, -0.6, x, x, -2
- CN1C[C@H]2CON(C)[C@H]2C[C@H]1c1cccc(-c2ccccc2)c1
    -1.5%, 4, 3.0, 6, 1.9, -15
- CCOC(=O)N1CCN(Cc2nc(N)nc(Nc3ccc(OCC)cc3)n2)CC1
    -3.4%[38.3 µM], -2, 0.4, -4, -0.6, -12
- Cc1ccc(S(=O)(=O)N(CC(=O)Nc2ccc3c(c2)OCO3)c2cc(Cl)cc(Cl)c2)cc1
    2.1%, x, 0.3, x, x, -12
- CC1(C)CC(=O)C2=C(C1)OC(N)=C(C#N)C21CCN(C(=O)OCc2ccccc2)CC1
    1.2%[38.3 µM], 0, -0.1, -2, 1.1, 43
- COc1cccc(-c2nc(CS(=O)(=O)CC(=O)Nc3c(C)cccc3C)c(C)o2)c1
    11%, 3, 0.5, -9, -3.4, -8
- COc1ccc(-n2c(SCC(=O)NCC3CCCO3)nc3c(c2=O)SCC3)cc1OC (stereo not drawn)
    -1.3%, 5, -0.4, 5, 2.6, -9
- CCCc1nc2nc(C)c(NS(=O)(=O)c3ccc(F)cc3)c(=O)n2[nH]1
    2.0%&-0.1%, 6, 0.6&-0.4, -1, -2.0, 12&5
- CCN1C(=NCCc2cccs2)N[C@@H](c2cccs2)C(C(=O)OC)=C1C
    1.0%, -10, -0.7, -14, -3.3, 5
- CCCNc1c(NC(=O)COc2ccc(Cl)cc2)c(=O)oc2ccccc12
    1.6%, 0, -0.6, 1, -7.1, -5
- COc1ccc(NC(=O)c2c(N)no[n+]2[O-])cc1
    1.6%, 0, -0.3, -1, -0.5, 15
- CC1CCCCN1C(=O)CSc1nc2ccsc2c(=O)n1Cc1ccccn1 (stereo not drawn)
    -2.2%[38.3 µM], -7, 0.2, -5, -4.2, 34
- CCN(CC)CCCNc1oc(-c2ccc(OC)cc2)nc1C#N
    -0.8%, x, 0.9, x, x, -18
- CCCCn1c(N)c(N(Cc2ccccc2OC)C(=O)c2sccc2C)c(=O)[nH]c1=O
    2.9%, 12, -0.2, -16, -1.8, -6
- Cn1c(O)c(N=Nc2ccccc2)c2ccccc21
    3.9%, 8, 1.1, -13, -0.8, -13
- CC(=O)Nc1ccc(S(=O)(=O)Nc2cc([N+](=O)[O-])ccc2C)cc1
    -0.4%, 4, 0.8, -18, -4.1, 27
- CC(=O)C1=C(c2ccccc2)N(C(C)=O)n2c(C)nnc2S1
    -1.4%, -7, 1.3, -15, -21, -6
- CCc1ccc(C2=CC(c3cccc(C)c3)n3c(nc4ccccc43)N2)cc1 (stereo not drawn)
    10%, x, 1.0, x, x, -6
- CCc1sc(C(=O)Nc2ccsc2C(=O)OC)cc1Br
    12%[38.3 µM], 6, 2.5, 6, -2.7, -12
- COc1ccc(C2=CCCC2)c(OC)c1
    6.0%, 11, 0.6, 2, -2.5, 10
- O=C(/C=C/c1ccc(Cl)cc1)NC1CC2CCC1C2 (stereo not drawn)
    -0.3%, -2, 2.9, 8, -2.4, -2
- Cc1ccc(CCNC(=O)c2ccc3c(c2)nc2n3CCOC2)cc1
    1.0%, x, 0.1, x, x, 10
- O=C(NC1CCN(C(=O)N2c3ccccc3Sc3ccccc32)CC1)c1ccco1
    -1.8%, -6, 0.6, -5, -3.8, -17
- Cc1c(NC(=O)Oc2ccccc2)sc(=S)n1C
    8.1%[38.3 µM], -2, 0.1, 4, -0.5, -10
- CC(C)[C@H](NC(=O)c1ccccc1)C(=O)OCC(=O)Nc1ccc(Cl)cc1C(F)(F)F
    -1.4%, -8, -0.3, 1, -4.9, 15
- O=C(Oc1ccc[nH]c1=O)c1ccccc1
    0.8%, 0, -0.7, 0, -2.8, -7
- N#Cc1ccccc1NC(=O)COC(=O)c1ccc(F)cc1F
    1.1%, -1, -0.3, -3, -7.0, 2
- Cc1ccc(C)c(NC(=O)C2CC(=O)N(C(C)C)C2)c1 (stereo not drawn)
    1.5%, 3, -0.4, 4, -2.0, u
- CCc1cccc(C)c1NC(=O)CCS(=O)(=O)c1ccc2c(c1)oc(=O)n2C
    4.1%, x, -0.9, x, x, 8
- Nc1ncnc2c1ncn2[C@@H]1O[C@H](C(=O)NCC2CCN(Cc3ccccc3)CC2)[C@@H](O)[C@H]1O
    3.6%, -3, -0.6, 8, -6.7, 2
- CCc1ccccc1NC(=O)C1=CN2CCS(=O)(=O)N=C2C=C1
    -1.6%, 1, 0.7, -14, -0.9, 5
- CCCCNc1nc(Oc2ccc(=O)n(C)n2)nc(N2CCOCC2)n1
    -0.1%, x, 3.5, x, x, -6
- O=C(CC1C(=O)NCCN1Cc1cccc(Oc2ccccc2)c1)NCCc1ccccn1 (stereo not drawn)
    0.8%, -23, -0.6, 25, -4.3, 5
- COc1ccccc1CNC(=O)CN1C(=O)NC2(CCCc3ccccc32)C1=O (stereo not drawn)
    -0.8%, 0, -0.4, x, -2.9, 2
- CCOC1=C2CN(S(=O)(=O)c3ccc(Cl)cc3)[C@H](c3ccccc3)C[C@@H]2N(S(=O)(=O)c2ccc(C)cc2)[C@H](c2ccccc2)C1
    -0.6%, -4, 3.3, 4, -5.1, 8
- CC1C(=O)Nc2ccc(S(=O)(=O)N3CCc4ccccc4C3)cc2NC1=O (stereo not drawn)
    2.5%, 0, -1.8, 10, -1.5, -13
- O=C(CN(C(=O)c1cc2c(s1)CCC2)C1CCCC1)NCc1cccs1
    -1.5%[38.3 µM], 0, 0.8, 12, -0.2, 9
- O=C(NCCN1CCN(C(=O)c2ccc(Br)cc2)CC1)c1ccc(Br)cc1
    1.8%, 2, -0.6, 0, 1.9, -2
- CC[C@]12c3[nH]c4cc(-c5ccco5)ccc4c3CCN1C(=O)[C@@H](CC(=O)NC/C=C(\C)CCC=C(C)C)C[C@@H]2C(=O)N1CCN(C(=O)c2ccco2)CC1
    2.3%, -18, -0.6, -17, -1.6, 6
- CCOc1ccc(N2CC(O)=C(c3nc4ccccc4c(=O)[nH]3)C2=N)cc1
    4.9%, 2, -0.3, 3, -1.4, -6

(cont.)
The line under a structure holds: PINK1 expr mod, Six1-Eya2 blk, TRPML1 ag, CtBP-E1A inh, D2 ag, TRPML1 inh
- Cc1ccnc(NS(=O)(=O)c2ccc(-n3cccn3)cc2)c1
    1.0%, 0, 0.5, x, -2.3, 5
- O=C(c1ccco1)N1N=C2CCCCCC2C1(O)C(F)(F)F (stereo not drawn)
    1.9%, 3, -1.1, 4, -2.7, -2
- COc1ccc(N/C=C/C(=O)c2ccc(OC)c(OC)c2)cc1
    -0.8%, -4, 0.3, -2, 3.8, 13
- CCCCOc1nc2c(c(=O)n(C)c(=O)n2C)n1C
    -0.1%, -5, 0.3, 1, -2.0, -2
- Cc1cc(C)n(-c2nc3c(c(=O)[nH]c(=O)n3C)n2CC(C)C)n1
    1.5%, 11, -0.8, 2, -1.1, 23
- Cc1ccc(NS(=O)(=O)c2cccc(C(=O)Nc3cccnc3)c2)c(C)c1
    2.1%, -11, -0.3, -3, 0.8, -1

Three neighbouring entries already listed, quoted:
The line under a structure holds: PINK1 expr mod, Six1-Eya2 blk, TRPML1 ag, CtBP-E1A inh, D2 ag, TRPML1 inh
- Cc1ccnc(NS(=O)(=O)c2ccc(-n3cccn3)cc2)c1
    1.0%, 0, 0.5, x, -2.3, 5
- O=C(c1ccco1)N1N=C2CCCCCC2C1(O)C(F)(F)F (stereo not drawn)
    1.9%, 3, -1.1, 4, -2.7, -2
- COc1ccc(N/C=C/C(=O)c2ccc(OC)c(OC)c2)cc1
    -0.8%, -4, 0.3, -2, 3.8, 13
